Bioassay records (PubChem)
PV pol inh: inhibitors of poliovirus RNA polymerase binding and polymerization; P03300; poliovirus polymerase elongation, fluorescence polarization; stronger effect = lower value; % elongation, % (compound at 16.7 µg/mL); hit rate 0.66% among 150,000; in the data active means % elongation below about 90%; further: some results filed as inactive read as strong as hits
Target sequence (P03300 1749-2209 limits assumed): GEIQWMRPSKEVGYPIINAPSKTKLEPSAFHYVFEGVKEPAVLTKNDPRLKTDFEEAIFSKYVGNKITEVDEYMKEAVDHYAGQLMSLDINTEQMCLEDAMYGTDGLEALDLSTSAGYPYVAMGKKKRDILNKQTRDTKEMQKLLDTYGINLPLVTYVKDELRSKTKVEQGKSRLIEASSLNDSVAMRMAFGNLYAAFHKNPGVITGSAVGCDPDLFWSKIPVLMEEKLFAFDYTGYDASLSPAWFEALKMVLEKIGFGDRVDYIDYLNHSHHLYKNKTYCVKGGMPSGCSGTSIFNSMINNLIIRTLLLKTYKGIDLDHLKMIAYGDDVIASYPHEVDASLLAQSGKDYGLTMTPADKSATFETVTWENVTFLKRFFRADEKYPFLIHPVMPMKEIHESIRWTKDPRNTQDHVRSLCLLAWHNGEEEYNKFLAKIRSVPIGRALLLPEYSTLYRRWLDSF
PV pol inh intensity: second read-out of PV pol inh, no call of its own (marks repeat the call); % elongation; measured here: total intensity read-out; formula for this scale not given here;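 total fluorescence in place of polarization; lower means less elongation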
* hit, by the source's call. The list is partial; the hit share may differ from the screen's.

SMILES | PV pol inh | PV pol inh intensity
Cc1ccc(S(=O)(=O)c2nc(-c3cccs3)oc2SCc2ccc(F)cc2)cc1 | 109.0 | 112.0
CCCCN(Cc1ccccc1)S(=O)(=O)c1ccc2c(c1)CC(C)N2C(=O)CC (stereo not given) | 108.0 | 104.0
COC(=O)c1ccccc1NC(=O)Cn1c(=O)cc(C)c2c(C)nn(-c3cccc(Cl)c3C)c21 | 108.0 | 110.0
Fc1ccc(Nc2nc(Nc3ccc(F)cc3)nc(N3CCOCC3)n2)cc1 | 105.0 | 108.0
CCc1ccc(C2CC(=O)Nc3c2c(=O)n(C)c2ncnn32)cc1 (stereo not given) | 102.0 | 104.0
O=C(NCc1ccc(Cl)cc1)NCc1noc2ccccc12 | 111.0 | 111.0
CCOC(=O)c1cc(-c2ccc(OC)cc2)n(CCC(=O)Nc2ccccc2OC)c1C | 107.0 | 101.0
CCCCN(CC)CCCNC(=O)CN1C(=O)CSc2ccc(S(=O)(=O)N3CCOCC3)cc21 | 117.0 | 117.0
COc1ccccc1NC(=O)c1ccc(-c2nc(COc3ccc(C)cc3)c(C)o2)cc1 | 113.0 | 110.0
O=C(Nc1ccc2nc(SCC(=O)N3CCCc4ccccc43)sc2c1)c1ccccc1F | 112.0 | 114.0
CCc1nonc1NC(=O)c1oc2ccc(C)cc2c1C | 110.0 | 103.0
CCOc1ccccc1C(=O)Nc1cc(-c2ccc(C)cc2)no1 | 105.0 | 101.0
COc1ccc(CNC(=O)c2c3c(nc4ccccc24)C(=O)N(C2CCCCC2)C3)c(OC)c1 | 103.0 | 106.0
O=C(c1cc2ccccc2oc1=O)N(Cc1cccc(Cl)c1)C1CCS(=O)(=O)C1 (stereo not given) | 106.0 | 103.0
CCCN(c1c(C)n(C)n(-c2ccccc2)c1=O)S(=O)(=O)c1ccc(C)cc1 | 97.0 | 105.0
O=C(CCn1c(=O)c2cccn2c2cccnc21)N1CCN(c2cccc(C(F)(F)F)c2)CC1 | 111.0 | 104.0
CCOCCCNC(=O)c1cc(=O)[nH]c2ccc(S(=O)(=O)N3CCCC3)cc12 | 105.0 | 107.0
Cc1ccc(NC(=O)CN2C(=O)CCc3cc(S(=O)(=O)N4CCOCC4)ccc32)cc1F | 108.0 | 115.0
CCN1c2ccccc2-n2cccc2C12CCN(C(=O)Nc1ccccc1C(F)(F)F)CC2 | 107.0 | 115.0
Cc1noc(/C=C/c2cccs2)c1S(=O)(=O)N1CCC(C(=O)NCc2ccc(Cl)cc2)CC1 | 107.0 | 110.0
COc1ccc(CNC(=O)c2nc(SCc3ccc(C)cc3)ncc2Cl)cc1 | 101.0 | 105.0
Cn1c(=O)c2c([nH]c(=O)n2Cc2ccc(Cl)cc2Cl)n(C)c1=O | 113.0 | 116.0
Cc1ccc(CN2CCN(C3CCN(S(=O)(=O)c4ccc(C)cc4)CC3)C(=O)C2=O)cc1 | 109.0 | 117.0
CCN(c1ccccc1)c1nnc(NC(=O)Nc2cccc(Br)c2)s1 | 107.0 | 94.0
CCc1nn2c(=O)cc(COC(=O)c3ccccc3NC(=O)COc3ccccc3C)nc2s1 | 104.0 | 108.0
Next part
SMILES | PV pol inh | PV pol inh intensity
COc1ccc(NC(=O)c2cc(C)nc3c2c(C)nn3-c2ccc(C)cc2)cc1OC | 106.0 | 114.0
Cc1ccc(NC(=O)c2cc(CN3CCOCC3)on2)cc1Cl | 102.0 | 96.0
COCCCNC(=O)c1cc2c(=O)n3cccc(C)c3nc2s1 | 102.0 | 102.0
COc1ccc(NC(=O)CSc2nc3nc(C)c(Cc4ccccc4Cl)c(C)n3n2)cc1OC | 111.0 | 113.0
CCN(CC)S(=O)(=O)c1nnc(NC(=O)c2ccc(C(C)C)cc2)s1 | 105.0 | 113.0
COc1ccc(NC(=O)c2c(C)oc3ccc(O)c(CN4CCN(Cc5ccccc5)CC4)c23)cc1Cl | 102.0 | 101.0
CC(=O)Nc1ccc(C(=O)CSc2nnc3cc(C)c4ccccc4n23)cc1 | 114.0 | 113.0
COc1cc(C2SC[C@H]3C(=O)N(c4ccccc4)C(=O)N23)cc(OC)c1OC (stereo not given in full) | 103.0 | 106.0
CCC(Cc1ccccc1)NC(=O)c1cccc(Nc2nc3ccccc3nc2-n2nc(C)cc2C)c1 (stereo not given) | 107.0 | 109.0
COc1cccc(CNC(=O)Cn2nc(C)n3c(cc4cc(C)ccc43)c2=O)c1OC | 111.0 | 107.0
Cc1c(C(=O)Nc2ccc(Br)cc2F)oc2ccc(S(=O)(=O)N3CCCCC3)cc12 | 110.0 | 110.0
Cc1ccc(Nc2ccc(N3CCN(C(=O)c4ccc([N+](=O)[O-])cc4Cl)CC3)nn2)cc1 | 106.0 | 99.0
CCOc1cccc2cc(-c3cn4c(n3)sc3cc(C)ccc34)c(=O)oc12 | 107.0 | 112.0
CCOC(=O)c1ccc(NC(=O)c2cn(-c3ccccc3)nc2-c2ccc(Br)cc2)cc1 | 108.0 | 109.0
COc1ccc(Oc2c(C(F)(F)F)oc3c(CN4CCCC(C)C4)c(O)ccc3c2=O)cc1 (stereo not given) | 104.0 | 111.0
COc1ccc2c(C)c(CCC(=O)NCCc3ccc(OC)c(OC)c3)c(=O)oc2c1 | 106.0 | 112.0
CN(C(=O)CSc1nc2ccc(NC(=O)c3ccccc3F)cc2s1)c1ccccc1 | 119.0 | 114.0
COc1ccc(CC(=O)NCC(c2cccs2)S(=O)(=O)c2ccc(C)cc2)cc1 (stereo not given) | 113.0 | 106.0
CCCCn1c(=N)n(CCOc2ccccc2OC)c2ccccc21 | 103.0 | 105.0
Cc1ccc(Cn2c(-c3ccccc3)nc3ccccc32)cc1 | 111.0 | 110.0
CC(C)(C)c1cc(C(C)(C)C)c2oc(=O)c(-c3nc4ccccc4[nH]3)cc2c1 | 103.0 | 109.0
O=C(Cn1c(=O)c2ccccc2n(CC(=O)Nc2ccccc2F)c1=O)NCCc1ccccc1 | 102.0 | 104.0
O=C(c1ccc2c(c1)CCN2S(=O)(=O)c1ccc(Cl)cc1)N1CCN(c2ccccc2F)CC1 | 103.0 | 106.0
COc1ccc(-c2nc3ccccc3s2)cc1NC(=O)c1cc(OC)c(OC)c(OC)c1 | 102.0 | 107.0
CCOC(=O)c1[nH]c(C)c(CCC(=O)NCc2ccccc2)c1C | 104.0 | 102.0

Pulled by structure from the list above, 5 records:
SMILES | PV pol inh | PV pol inh intensity
Cc1c(C(=O)Nc2ccc(Br)cc2F)oc2ccc(S(=O)(=O)N3CCCCC3)cc12 | 110.0 | 110.0
CCOC(=O)c1[nH]c(C)c(CCC(=O)NCc2ccccc2)c1C | 104.0 | 102.0
CCOC(=O)c1ccc(NC(=O)c2cn(-c3ccccc3)nc2-c2ccc(Br)cc2)cc1 | 108.0 | 109.0
COc1ccc(Oc2c(C(F)(F)F)oc3c(CN4CCCC(C)C4)c(O)ccc3c2=O)cc1 (stereo not given) | 104.0 | 111.0
Cc1ccc(Nc2ccc(N3CCN(C(=O)c4ccc([N+](=O)[O-])cc4Cl)CC3)nn2)cc1 | 106.0 | 99.0

(further entries)
SMILES | PV pol inh | PV pol inh intensity
COC(=O)c1cc(S(=O)(=O)NCC2CCN(Cc3cc(C)ccc3C)CC2)c[nH]1 | 103.0 | 101.0
CCc1ccc2oc(-c3ccc(C)c(NC(=O)Cc4ccccc4)c3)nc2c1 | 109.0 | 105.0
COc1ccc(Nc2nc3ccccc3n3c(N)nnc23)cc1 | 105.0 | 139.0
CCCCc1ccc(NS(=O)(=O)c2cc3c4c(c2)CC(=O)N4CCC3)cc1 | 105.0 | 105.0
NC(=O)CN1C(=O)C2(SCC(=O)N2c2cccc(F)c2)c2ccccc21 (stereo not given) | 112.0 | 114.0
CCNC(=O)c1ccc(C)c(-n2c(C)nc3cccnc32)c1 | 107.0 | 113.0
Cc1ccc(C(=O)N(Cc2ccc(N(C)C)cc2)Cc2ccco2)cc1 | 101.0 | 100.0
Cc1oc2ccc(O)c(CN3CCN(Cc4ccccc4)CC3)c2c1C(=O)Nc1ccccc1 | 104.0 | 109.0
Cc1cccc(NC(=O)c2c(C)oc3ncn(CC(C)C)c(=O)c23)n1 | 108.0 | 106.0
COc1cc(CNC(=O)c2cnc(SC)nc2-c2ccccc2)cc(OC)c1OC | 110.0 | 114.0
CCSc1nc(-c2cccc(Cl)c2)nc2c1Cc1c(CO)cnc(C)c1O2 | 106.0 | 106.0
CN(C)S(=O)(=O)c1ccc(C(=O)NCCSc2c(-c3ccccc3)[nH]c3ccccc23)cc1 | 105.0 | 109.0
Cc1ccc(C)n1-c1nnc(N2CCCC(C(=O)NCc3cccc(Br)c3)C2)s1 (stereo not given) | 105.0 | 101.0
COc1ccccc1Nc1c2c(nc3ccc(NC(=O)c4ccccc4F)cc13)CCCC2 | 103.0 | 107.0
CCOC(=O)c1cc(-c2ccccc2)n(CCCC(=O)Nc2ccc(CC)cc2)c1C | 102.0 | 106.0
COc1ccc(CCNc2ncnc3onc(-c4ccc(Cl)cc4)c23)c(OC)c1 | 109.0 | 101.0
Cc1cccc(N2CCN(C(=O)c3cc(S(=O)(=O)N4CCC(C)CC4)cn3C)CC2)c1C | 106.0 | 110.0
CSCCC(NS(=O)(=O)c1ccc2c(c1)oc(=O)n2C)C(=O)N1CCN(c2cc(Cl)ccc2C)CC1 (stereo not given) | 103.0 | 111.0
CCCN(CCC)C(=O)Cn1c(=O)n(Cc2ccc(C(=O)NCCc3ccc(Cl)cc3)cc2)c(=O)c2ccccc21 | 107.0 | 108.0
CSc1ncc(Cl)c(C(=O)NCc2ccc(C)cc2)n1 | 122.0 | 118.0
O=C(NCCc1ccc(F)cc1)C(=O)NCC(c1cccs1)S(=O)(=O)c1cccs1 (stereo not given) | 105.0 | 102.0
CCOc1ccc(S(=O)(=O)Nc2cc3c(C(=O)OC)c(COC)oc3c3ccccc23)cc1 | 108.0 | 113.0
COc1ccccc1Nc1nn2c(=O)c3ccc(C(=O)NC4CCCCC4)cc3nc2s1 | 99.0 | 104.0
COc1ccc(OCc2nc3c4c(-c5ccc(OC)cc5)c(-c5ccc(OC)cc5)oc4ncn3n2)cc1 | 106.0 | 109.0
O=C(NCc1cccs1)c1ccc2c(=O)n3nc(Nc4ccccc4)sc3nc2c1 | 102.0 | 107.0
Next section
SMILES | PV pol inh | PV pol inh intensity
Cc1ccc(OCC(=O)NCC(c2ccc(Cl)cc2)N2CCCCC2)cc1 (stereo not given) | 98.0 | 98.0
Cc1nnc(SCc2ccccc2Cl)c2cc3occc3n12 | 107.0 | 104.0
CN(C)c1ccc(C(CNS(=O)(=O)c2ccc(F)cc2)N2CCOCC2)cc1 (stereo not given) | 112.0 | 116.0
CCOc1ccc2oc(=O)cc(CN3CCN(c4ccc(Cl)cc4)CC3)c2c1 | 107.0 | 95.0
Cc1ccc(CCNC(=O)c2cc3cc4cc(C)ccc4nc3s2)cc1 | 110.0 | 119.0
COc1ccc(CCn2c3c(c(=O)[nH]c2=O)C(NC(=O)c2ccccc2OC)(C(F)(F)F)C(=O)N3)cc1OC (stereo not given) | 106.0 | 109.0
COc1ccccc1-c1nc2c3c(-c4ccccc4)c(-c4ccccc4)oc3ncn2n1 | 104.0 | 105.0
Cc1ccc(S(=O)(=O)C(CNC(=O)COc2ccccc2)c2ccco2)cc1 (stereo not given) | 99.0 | 102.0
CCCCSCCCNC(=O)c1cn(C)c2ccc(S(=O)(=O)N3CCCCC3)cc2c1=O | 101.0 | 101.0
Cc1cc2ccccc2n1-c1ccc(C(=O)N2CCC(C(=O)NCc3ccc(F)cc3)CC2)s1 | 101.0 | 98.0
Cc1cccc(CCNc2ncnc3onc(-c4ccc(Cl)cc4)c23)c1 | 106.0 | 106.0
CN1C(=O)CC(=O)N(C)c2cc(S(=O)(=O)N(C)Cc3ccccc3)ccc21 | 110.0 | 107.0
COC(=O)c1cc2oc3ccccc3c2n1Cc1nc(-c2cccc(C)c2)oc1C | 104.0 | 113.0
COc1ccc(OC)c(S(=O)(=O)NCC(c2cccs2)S(=O)(=O)c2ccc(F)cc2)c1 (stereo not given) | 105.0 | 93.0
Cc1ccc(NC(=O)c2cc(S(=O)(=O)N3CCc4ccccc43)cn2C)c(Cl)c1 | 104.0 | 100.0
COc1ccc(-c2c(C)c3ccc(O)c(CN4CCCCC4)c3oc2=O)cc1OC | 107.0 | 107.0
Cc1ccc(S(=O)(=O)Nc2nc3n(n2)C(c2ccc(F)cc2)C=C(c2ccccc2)N3)cc1 (stereo not given) | 103.0 | 142.0
COc1ccccc1NC(=O)CC(C)n1nc(C)cc1C (stereo not given) | 104.0 | 108.0
O=C(Nc1cccc(F)c1)c1cccc2c1C(=O)N(C1CCCCC1)C2 | 109.0 | 108.0
Cc1ccc(S(=O)(=O)c2nnn3c2nc(NCc2ccc(F)cc2)c2sccc23)cc1 | 111.0 | 108.0
CSc1ccc(CCNC(=O)Cn2nc(C)n3c(cc4sccc43)c2=O)cc1 | 106.0 | 112.0
CC(=O)Nc1ccc(NC(=O)CN(C)S(=O)(=O)c2ccc3c(c2)CCCC(=O)N3)cc1 | 107.0 | 103.0
O=C(CSc1ncc(S(=O)(=O)c2ccc(Cl)cc2)c(=O)[nH]1)Nc1cccc(C(F)(F)F)c1 | 107.0 | 111.0
O=C(Cn1cc(SCc2ccc(Br)cc2)c2ccccc21)N1CCCCC1 | 120.0 | 125.0
Cc1ccc(NC(=O)C2CCCN(c3ncnc4c3nc3n4CCCCC3)C2)cc1F (stereo not given) | 108.0 | 106.0
CN1CCN(C(CNC(=O)C(=O)Nc2ccccc2)c2ccc3c(c2)OCO3)CC1 (stereo not given) | 109.0 | 114.0
CC(=O)Nc1ccc(C2Sc3ccccc3NC3=C2C(=O)c2ccccc23)cc1 (stereo not given) | 107.0 | 104.0
CC(C)c1ccc(NC(=O)CS(=O)(=O)c2cccc3nsnc23)cc1 | 109.0 | 114.0
COc1ccc(NCc2nc3ccccc3n2CCOc2ccccc2C)cc1 | 105.0 | 105.0
CC(=O)OCc1cnc(C)c2oc(=O)c(C(=O)Nc3cccc(F)c3)cc12 | 103.0 | 101.0

In another format: entries from further up.
SMILES: CCCCSCCCNC(=O)c1cn(C)c2ccc(S(=O)(=O)N3CCCCC3)cc2c1=O
- PV pol inh: 101.0
- PV pol inh intensity: 101.0
SMILES: Cc1cc2ccccc2n1-c1ccc(C(=O)N2CCC(C(=O)NCc3ccc(F)cc3)CC2)s1
- PV pol inh: 101.0
- PV pol inh intensity: 98.0
